Screening data from PubChem.
KCNQ2 block: KCNQ2 potassium channel inhibitors, primary screen, cell-based, CHO-K1, FluxOR thallium flux, B-score (AID 2156) | Potassium voltage-gated channel subfamily KQT member 2 (Rattus norvegicus), O88943 | 20 min; hits give low values; only compounds with negative scores are shown here; some inactives read as strong as hits | B-score at 10 µM | hit rate 1.1% among 310,000;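 active = fluorescence ratio B-score at most minus 3 library SDs, with starting brightness B-score within 2 library SDs, cut at about -5.5 in these data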
Target sequence (O88943 whole entry, looked up): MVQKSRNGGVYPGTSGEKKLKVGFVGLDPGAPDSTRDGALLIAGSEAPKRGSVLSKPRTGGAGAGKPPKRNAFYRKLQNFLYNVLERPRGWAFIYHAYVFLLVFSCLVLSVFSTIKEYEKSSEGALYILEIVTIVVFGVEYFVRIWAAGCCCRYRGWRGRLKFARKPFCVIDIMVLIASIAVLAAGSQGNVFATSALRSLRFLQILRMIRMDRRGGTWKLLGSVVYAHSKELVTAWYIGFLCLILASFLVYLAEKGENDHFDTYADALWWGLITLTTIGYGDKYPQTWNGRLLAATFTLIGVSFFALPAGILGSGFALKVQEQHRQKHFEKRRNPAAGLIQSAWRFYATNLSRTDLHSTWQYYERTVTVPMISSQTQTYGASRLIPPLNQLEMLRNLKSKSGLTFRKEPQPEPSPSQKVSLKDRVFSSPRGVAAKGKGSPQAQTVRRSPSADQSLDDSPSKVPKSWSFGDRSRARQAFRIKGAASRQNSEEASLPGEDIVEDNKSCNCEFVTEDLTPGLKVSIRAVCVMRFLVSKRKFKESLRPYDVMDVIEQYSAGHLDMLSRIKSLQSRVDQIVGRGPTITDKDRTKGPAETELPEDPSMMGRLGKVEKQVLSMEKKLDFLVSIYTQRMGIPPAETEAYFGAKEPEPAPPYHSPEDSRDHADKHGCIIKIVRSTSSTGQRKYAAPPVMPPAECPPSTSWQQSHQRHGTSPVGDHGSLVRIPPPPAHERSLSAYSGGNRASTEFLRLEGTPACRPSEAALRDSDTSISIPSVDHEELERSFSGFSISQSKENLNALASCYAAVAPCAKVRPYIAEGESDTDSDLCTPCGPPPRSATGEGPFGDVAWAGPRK
KCNQ2 block baseline: recorded beside KCNQ2 block, whose call it bears; B-score; measured here: initial fluorescence intensity artifact check;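 brightness before thallium and not channel activity; 0 = typical well and far values either way flag optical interference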
* hit, by the source's call; i = inactive. Only part of the results is shown; the hit share may differ from the screen's.

Start of the data: the first seven entries as a preview:
Values in the order: KCNQ2 block, KCNQ2 block baseline
CCc1nc(Nc2ccc3c(c2)OCCO3)c2oc3ccccc3c2n1
    i, -0.83
NS(=O)(=O)c1ccc(CCNC(=O)c2ccc3c(c2)N(Cc2ccccc2)CCS3)cc1
    i, 1.8
CCOC(=O)c1ccc2nc(C)cc(Nc3cccc(C(=O)O)c3)c2c1
    i, -0.17
O=C1NCCN1CCNS(=O)(=O)c1ccc2ccccc2c1
    i, 0.14
CCCCN(C(=O)c1c(C)[nH]c(C(=O)OCC)c1C)c1ccccc1
    i, 1.1
CCS(=O)(=O)c1nc(S(=O)(=O)c2ccc(Cl)cc2)c(NCCCN2CCOCC2)s1
    i, -1.4
CC(C)CCNC(=O)C(c1cccnc1)N(CCc1ccccc1)C(=O)Cn1nnc2ccccc21 (stereo unspecified)
    i, 0.16

Results, from the start:
Values in the order: KCNQ2 block, KCNQ2 block baseline
CCc1nc(Nc2ccc3c(c2)OCCO3)c2oc3ccccc3c2n1
    i, -0.83
NS(=O)(=O)c1ccc(CCNC(=O)c2ccc3c(c2)N(Cc2ccccc2)CCS3)cc1
    i, 1.8
CCOC(=O)c1ccc2nc(C)cc(Nc3cccc(C(=O)O)c3)c2c1
    i, -0.17
O=C1NCCN1CCNS(=O)(=O)c1ccc2ccccc2c1
    i, 0.14
CCCCN(C(=O)c1c(C)[nH]c(C(=O)OCC)c1C)c1ccccc1
    i, 1.1
CCS(=O)(=O)c1nc(S(=O)(=O)c2ccc(Cl)cc2)c(NCCCN2CCOCC2)s1
    i, -1.4
CC(C)CCNC(=O)C(c1cccnc1)N(CCc1ccccc1)C(=O)Cn1nnc2ccccc21 (stereo unspecified)
    i, 0.16
O=C(OCC1COc2ccccc2O1)c1c(F)cccc1F (stereo unspecified)
    i, 0.31
CCC(C)[C@H](NC(=O)[C@@H]1Cc2c([nH]c3ccccc23)C2c3ccccc3C(=O)N21)C(=O)NCC1CCCO1 (stereo partly specified)
    i, -1.6
C=CCOC(=O)C1=C[C@@H](c2ccc(Br)cc2)C[C@@H](OCc2ccc(CO)cc2)O1
    i, -1.6
CCOC(=O)C1=C(COc2ccc(F)cc2Cl)NC(=O)NC1c1cc(C)ccc1C (stereo unspecified)
    i, 1.3
CCN(CC)C(=O)CSc1nc(O)c(Cc2ccccc2)c(=O)n1-c1ccccc1C
    i, -0.89
COC(=O)/C=C/CC(C)OS(N)(=O)=O (stereo unspecified)
    i, -0.32
Cc1ccc(NC(=O)c2ccc(Cl)c(NC(=O)c3cccs3)c2)cc1
    i, 0.65
COc1ccc(CCN2C(=O)C3C4CC(C5C(C(=O)N/N=C\c6ccc(Cl)cc6)=NOC45)C3C2=O)cc1OC (stereo unspecified)
    i, 0.46

Next part
Values in the order: KCNQ2 block, KCNQ2 block baseline
CCN(CC)S(=O)(=O)c1ccc2c(c1)nc(CCC(=O)Nc1cccc(C(F)(F)F)c1)n2CC
    i, 0.02
O=C(NN1C(=O)C2C(C1=O)C1C=CC2C12CC2)c1cccnc1 (stereo unspecified)
    i, -1
COc1ccccc1-c1cn[nH]c1-c1ccc(OCc2ccccc2)cc1O
    i, -1.1
O=C(c1ccc(F)c(S(=O)(=O)N2CCOCC2)c1)N(c1ccccc1)c1ccccn1
    i, -1.9
Cc1cccc(NC(=S)N2CCN(c3ccc(F)cc3)CC2)c1
    i, 0.82
CCOC(=O)c1c(NC(=O)CSc2nc3ccccc3c(=O)n2-c2ccccc2)sc(C(C)=O)c1C
    i, 0.02
Cc1cc(C(=O)Nc2ccc(S(=O)(=O)Nc3onc(C)c3C)cc2)cs1
    i, -0.62
CCOCCCNC(=O)C1CCN(C(=O)Nc2ccc(C)cc2)CC1
    i, -0.24
COc1ccc(-n2c(C)c(C)c3c(NCCCO)ncnc32)cc1
    i, -0.2
N#C/C(=C\c1cn(Cc2ccccc2)c2ccccc12)C(=O)NCc1ccco1
    i, 0.01
COc1ccc(CCn2c(N)c(S(=O)(=O)c3cccs3)c3nc4ccccc4nc32)cc1OC
    i, 1
COc1ccc2c(c1)c(=O)c(C(=O)c1ccccc1)cn2Cc1ccc(C)cc1
    i, -1.1
Cc1ccc(-c2[nH]c(-c3ccc(C(=O)O)cc3)nc2-c2ccccc2)cc1
    i, -0.99
COc1ccc(Cl)cc1NC(=O)COC(=O)CNC(=O)c1ccc([N+](=O)[O-])c(C)c1
    i, 1.2
Cc1ccccc1NC(=O)Nc1ccc2c(c1)OCO2
    i, 0.9

Following part.
Values in the order: KCNQ2 block, KCNQ2 block baseline
COc1ccc(OC)c(-c2csc(-c3cccs3)n2)c1
    i, 1.4
CCCn1c(=O)c(C(=O)Nc2ccccc2C)c(O)c2ccccc21
    i, 0.14
Cc1cc(Cl)ccc1OCc1nnc2n1CCCCC2
    i, 3
CCn1cc(/C=C/c2cc[n+](C)cc2)c2ccccc21
    i, 71
Cc1cc(N2CCN(C)CC2)nc2ccc(NC(=S)N3CCN(c4cccc(Cl)c4)CC3)cc12
    i, 1.4
C/C(=N\NC(=O)c1cccc([N+](=O)[O-])c1)c1cccnc1
    i, 2.6
CC1=C(C(=O)N2CCN(c3cc(C)ccc3C)CC2)C2(CCCCC2)OC1=O
    i, 1.1
CCn1cc(/C=C(\NC(=O)c2ccc(OC)cc2)C(=O)N2CCOCC2)c2ccccc21
    i, -0.32
COc1ccc(N(CC(=O)Nc2ccccc2C(N)=O)S(=O)(=O)c2ccc(C)c([N+](=O)[O-])c2)cc1
    i, -0.69
CCOc1cc(Cl)c(S(=O)(=O)NCc2ccccn2)cc1Cl
    i, 1.1
O=C(O)CCc1nn2cc(-c3ccccc3)nc2[nH]c1=O
    i, 0.08
CCCN1C(=O)/C(=C/c2cc(C)n(C)c2C)SC1=Nc1ccc(OC)cc1
    i, -0.19
Cc1ccc(-c2nnc3n2N=C(c2ccccc2)CS3)cc1
    i, -0.13
COC(=O)Nc1c(-c2ccccc2)nc2ccc(Cl)cn12
    i, 0.65
COc1cccc(N2CCN(S(=O)(=O)c3ccc4c(c3)CC(C)N4C(=O)C3CC3)CC2)c1 (stereo unspecified)
    i, 0.34

(further entries)
Values in the order: KCNQ2 block, KCNQ2 block baseline
CN(c1ccccc1)c1ccc(/C=C/[N+](=O)[O-])cc1
    i, 1.4
C=CCNC(=O)CC(C)C(CCCCC)C(=O)O (stereo unspecified)
    i, -0.59
Cc1cc(C)nc(SCC(=O)Nc2ccc(S(=O)(=O)N3CCCCC3)cc2)n1
    i, -0.11
CCN1C(=O)[C@@H]2[C@@H](c3ccc(SC4CCCCC4)cc3)N3CCCC[C@@]3(C(=O)OC)[C@@H]2C1=O
    i, -0.64
CSc1ccccc1NC(=O)NCCCl
    i, 1.9
O=C(O)c1ccc(N2C(=O)/C(=C/c3ccc(-c4ccc([N+](=O)[O-])cc4)o3)C=C2c2ccccc2)cc1
    i, -0.03
Cc1nnc(-c2ccc(Oc3ccc(C)c(C)c3)c([N+](=O)[O-])c2)o1
    i, 2.6
C=CCOc1cccc(C2C(C(=O)c3ccco3)=C(O)C(=O)N2Cc2ccncc2)c1 (stereo unspecified)
    i, 1.4
C/C(CC(=O)Nc1ccc2c(c1)OCO2)=N\NC(=O)C(c1ccccc1)c1ccccc1
    i, -0.01
Cc1cccc(-c2cc3nc4c(c(N5CCOCC5)n3n2)CCCC4)c1
    i, 1.3
COc1ccccc1-c1cc(C(=O)NCc2ccccc2)no1
    i, 1.1
CCOc1ccc(N2C(=O)C3=C(C(c4ccc(Cl)cc4)=NCCN3)C2c2cccnc2)cc1 (stereo unspecified)
    i, 0.19
NNc1nc(C(F)(F)F)nc2ccccc12
    i, 0.05
N#CC(c1ccc(F)cc1)c1ccc(C(=O)c2ccccc2)cc1 (stereo unspecified)
    i, 0.42
CCOC(=O)c1c(/N=C/N(C)C)sc(/C=N/Nc2ccccc2)c1-c1ccccc1Cl
    i, -1.7

The results go on:
Values in the order: KCNQ2 block, KCNQ2 block baseline
CCSc1nnc(NC(=O)Cc2ccc(OC)c(OC)c2)s1
    i, 0.96
O=C1S/C(=C/c2ccc(N3CCOCC3)o2)C(=O)N1Cc1ccc(F)cc1
    i, 1.6
COc1ccc2c(c1OC)C(=O)N1c3ccccc3C(=O)N(c3ccccc3F)C21 (stereo unspecified)
    i, -0.8
O=[N+]([O-])c1cccc(Nc2c3ccccc3nc3ccccc23)c1
    -5.7*, -1.1*
Cc1ccc(Nc2nc3ccccc3nc2Nc2c(C)n(C)n(-c3ccccc3)c2=O)cc1
    i, 0.14
O=C(O)Cn1nnc(COc2ccccc2)n1
    i, -2.1
Cc1ccc(C(=O)NC2CCC(C)CC2)s1 (stereo unspecified)
    i, 0.11
Cc1cccc(NS(=O)(=O)c2cc([N+](=O)[O-])ccc2C)n1
    i, 1.1
CCOC(=O)C(=O)Nc1ccc(S(=O)(=O)Nc2ncccn2)cc1
    i, 2.4
Cc1ccc(NCC(=O)N/N=C/c2c[nH]c3ccccc23)cc1
    i, -0.31
CCOC(=O)C1(Cc2ccccc2C)CCCN(C(=O)COC)C1 (stereo unspecified)
    i, -1.3
COc1ccc2[nH]c3c(c2c1)CCNC3c1ccc([N+](=O)[O-])o1 (stereo unspecified)
    i, 7
Cc1cccc(NC(=O)CCC(=O)N/N=C/c2ccco2)c1
    i, 0.12
CCCCCCCCCCCCCCCC(=O)NCCc1c[nH]c2ccccc12
    i, -0.23
COC(=O)CN1C(=O)[C@H]2[C@@H](c3ccc(C)o3)N3C(=O)CN(Cc4ccccc4)C(=O)[C@@]3(C)[C@H]2C1=O
    i, 0.04

(cont.)
Values in the order: KCNQ2 block, KCNQ2 block baseline
Cc1cccc(NC(=O)N2CCC(n3nnc4cc(C)ccc43)CC2)c1
    i, -1.6
O=C(CCNC(=O)c1ccco1)Nc1ccc(SC(F)F)cc1
    i, -0.4
CC1CN=C(N(Cc2ccccc2)C(=O)Nc2ccccc2)S1 (stereo unspecified)
    i, 2.2
COc1ccc(C2(C)CC(=O)NC2=O)cc1 (stereo unspecified)
    i, 0.84
Cc1ccnc(NC(=O)Cn2cc([N+](=O)[O-])cn2)c1
    i, -1.4
O=C(CN(C(=O)CCC(=O)Nc1nccs1)c1ccc(F)cc1)NCc1ccco1
    i, 1.9
CC(=O)Nc1ccc(OCC(=O)NC(C)c2ccc(F)cc2)cc1 (stereo unspecified)
    i, 0.33
O=C(C1CC1)N1CCN(S(=O)(=O)c2ccc3c(c2)OCCO3)CC1
    i, 0.27
O=C(Nc1ccccc1N1CCOCC1)c1cnccn1
    i, 0.37
O=C(COc1ncnc2c1cnn2-c1ccccc1)Nc1ccc(S(=O)(=O)N2CCCCC2)cc1
    i, 0.1
COc1ccc(-n2c(CNC(=O)c3cccs3)n[nH]c2=S)cc1
    i, -0.26
Cc1ccc(OCCCCn2ccnc2)c(Cl)c1
    i, 0.31
C/C(CC(=O)Nc1ccc(Br)cc1)=N\NC(=O)Cc1csc(N)n1
    i, 0.35
Cc1ccc(/C=C/C(=O)N2CCN(c3cccc(C(F)(F)F)c3)CC2)cc1
    i, 0.32
O=[N+]([O-])c1nn(-c2ccc3c(c2)OCCO3)n(O)c1=NCCCO
    i, -0.1

Two compounds picked at random from those above, as already listed:
Values in the order: KCNQ2 block, KCNQ2 block baseline
COc1ccc(N(CC(=O)Nc2ccccc2C(N)=O)S(=O)(=O)c2ccc(C)c([N+](=O)[O-])c2)cc1
    i, -0.69
NS(=O)(=O)c1ccc(CCNC(=O)c2ccc3c(c2)N(Cc2ccccc2)CCS3)cc1
    i, 1.8

New compounds follow:
Values in the order: KCNQ2 block, KCNQ2 block baseline
Cc1nc2ccccc2n1CCc1nc2c3ccccc3nc(SCC(=O)NCc3ccco3)n2n1
    i, -0.95
Cc1ccccc1Cn1c(-c2cncs2)nc2ccccc21
    i, -3.1
CCN(CC)c1nc2n(c(=S)n1)CCS2
    i, -1.9
COc1ccc(N(CC(=O)Nc2cccnc2)S(=O)(=O)c2ccc(C)cc2)cc1Cl
    i, -0.82
O=C(CCNC(=O)c1ccc(Br)cc1)NCCCc1ccccc1
    i, 0.45
O=C(C(Sc1ccccc1)c1ccccc1)N1CCN(c2ccccc2F)CC1 (stereo unspecified)
    i, 0.18
CCCC1=NN(C(=O)CCc2ccccc2O)C(O)(C(F)(F)F)C1 (stereo unspecified)
    i, 0.74
CCOC(=O)c1ccccc1NC1c2ccccc2C(=O)N1c1ccc(C)cn1 (stereo unspecified)
    i, 0.63
COc1ccc(CNC(=O)Cn2nc([N+](=O)[O-])c(Br)c2C)cc1
    i, 0.28
Cc1ccc(OCC(=O)Nc2cccc(S(=O)(=O)NC3=NCCCCC3)c2)cc1C
    i, 2.3
COc1ccc(-c2csc3ncnc(NCCN4CCOCC4)c23)cc1
    i, -0.3
O=[N+]([O-])c1nn(-c2ccc3c(c2)OCCO3)n(O)c1=Nc1ccccc1
    i, -3.4
CCN(CC)CC(O)COCCC12CC3CC(CC(C3)C1)C2 (stereo unspecified)
    i, 1.1
Cn1c(SCC(=O)NCCN2C(=O)CSC2=O)nnc1-c1ccccc1
    i, 0.73
Cc1ccc(/C=N/NC(=O)c2nnn(-c3nonc3N)c2CN(C)C)o1
    i, 0.86

Other records:
Values in the order: KCNQ2 block, KCNQ2 block baseline
CCO[C@H]1OC(C(=O)N2CCCCCCC2)=C[C@@H](C2CCCCC2)[C@@H]1CCCO
    i, -0.85
Cc1sc(NC(=O)CSC2=NCCS2)nc1-c1ccccc1
    i, 0.88
COC(=O)c1c(NC(=O)Cc2cccs2)sc(C)c1C
    i, -0.6
CCOC(=O)CN1C(=O)COc2ccc(C(C)(C)C)cc21
    i, -0.39
O=C(O)c1cccc(NC(=S)N/N=C/c2ccccn2)c1
    i, 1.1
CCc1ccc(CN(C)C(=O)c2ccc3c(=O)n4c(nc3c2)CCC4)cc1
    i, 0.54
CCc1ccc(NC(=O)[C@H](Cc2c[nH]c3ccccc23)NC(=O)[C@@H]2Cc3ccccc3CN2)cc1
    i, -0.48
Cc1cccc(C)c1NC(=O)c1cn(-c2ccccc2)nc1-c1ccccc1
    i, -1.2
CCCCNC(=O)Cn1c(=O)c2c(ncn2CC)n(Cc2ccccc2)c1=O
    i, -0.43
O=C(NC1CC1)C1=C[C@@H](c2csc3ccccc23)C[C@@H](OCCCCO)O1
    i, 0.39
COc1ccc2nc(NC(=S)N(C)C)sc2c1
    i, 1.4
